MT1-MMP reporter: MT1-MMP gene expression reporter suppression – cell-based, luciferase reporter, luminescence (AID 618) | calls from a first round at 10 µM; hits with a dose series show EC50 in µM | actives 0.62% (n = 87,000) | MT1-MMP promoter luciferase reporter cells, luminescence;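 active means over half of the reporter light lost at 10 µM or EC50 under 50 µM; inactive means the rest and hits that failed the dose series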;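 further: actives suppress MT1-MMP promoter-driven transcription so potencies describe inhibitors; HT1080 fibrosarcoma cells; overnight exposure; toxic or luciferase-blocking compounds were not removed from the actives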
Hsc70: Hsc70 inhibitors, probe displacement, primary screen, biochemical, fluorescence polarization (AID 568). Hsc70 fluorescence polarization, probe displacement; higher % means a stronger effect; strong numbers were not always called active. displacement, % at 20 µM; hits with a dose series show IC50 in µM. 83,000 tested, under 10 active;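 active means displacement above 50% without optical interference and an IC50 on retest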;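 further: ATPase domain with a fluorescein-tagged ATP probe; 0% = vehicle and 100% = excess ADP; read after one hour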
WNV NS2B-NS3 inh: inhibitors of West Nile virus NS2B-NS3 protease; P06935; WNV NS2B-NS3 protease, fluorogenic substrate Ex360/Em465; active compounds read low; z-score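 (tested at a level between 10 and 100 µM)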; actives 0.18% (n = 65,000);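 active means z-score at -3 or under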;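 further: score is relative to mean and spread of the compound wells of a plate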
Target sequence (P06935 1371-1501 limits assumed): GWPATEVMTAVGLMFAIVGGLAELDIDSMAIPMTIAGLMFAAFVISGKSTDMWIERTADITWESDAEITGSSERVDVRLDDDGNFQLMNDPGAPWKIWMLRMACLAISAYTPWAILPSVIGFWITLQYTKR
Target sequence (P06935 1502-1679 limits assumed): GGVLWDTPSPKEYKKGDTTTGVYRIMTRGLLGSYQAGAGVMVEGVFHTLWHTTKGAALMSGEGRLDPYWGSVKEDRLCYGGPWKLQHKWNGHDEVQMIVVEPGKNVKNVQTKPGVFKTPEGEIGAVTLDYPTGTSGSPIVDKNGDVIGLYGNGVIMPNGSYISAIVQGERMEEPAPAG
Numbers without * were called inactive; i = inactive; nt = not tested or not shown; & = joins results of further samples. A portion of the library; the hit share may differ from the screen's.

entry	mol	Hsc70	MT1-MMP reporter	WNV NS2B-NS3 inh
1	COc1cccc(-c2cc(C(F)(F)F)nc(N3CCOCC3)n2)c1	1.9%	i	-0.85
2	CCCCNC(=O)n1c(SC)nc2ccccc21	0.7%	i	nt
3	CC(CC(=O)NC1CCCC1)c1ccccc1 (stereo unspecified)	-2.1%	i	nt
4	CC1CCCN(CC(=O)Nc2ccc(S(=O)(=O)N3CCCCC3)cc2)C1 (stereo unspecified)	1.6%	i	nt
5	COc1ccc(S(=O)(=O)Cc2ccc(C(=O)N3CCN(c4cccc(C)c4C)CC3)o2)cc1	6.1%	i	-0.37
6	COc1ccccc1OCCCCCNCCO	-4.6%	i	-1.7
7	COc1cc(C2NC(=O)NC(C)=C2C(=O)OCc2ccccc2)ccc1O (stereo unspecified)	-11%	i	0.13
8	CCOc1cc(C(=O)Nc2c3c(nn2C(C)(C)C)CS(=O)C3)cc(OCC)c1OCC (stereo unspecified)	4.7%	i	-0.66
9	O=C(O)CSc1cccc2cccnc12	1.6%&-5.7%	i	0.83
10	COc1cccc(C(=O)Nc2c(F)c(F)c(F)c(F)c2F)c1	5.1%	i	0.15
11	CC(C)(C)OC(=O)NCCc1nnc(S(=O)(=O)Cc2ccc(Cl)cc2Cl)o1	-2.9%	i	0.22
12	CC(=O)c1c(N2CCCC2)nc(=S)n(-c2ccccc2)c1C	2.0%	i	nt

The closing 2 entries of the section before open the next one:
entry	mol	Hsc70	MT1-MMP reporter	WNV NS2B-NS3 inh
11	CC(C)(C)OC(=O)NCCc1nnc(S(=O)(=O)Cc2ccc(Cl)cc2Cl)o1	-2.9%	i	0.22
12	CC(=O)c1c(N2CCCC2)nc(=S)n(-c2ccccc2)c1C	2.0%	i	nt
13	COCCn1c(COc2ccccc2)nnc1SCC(N)=O	-0.1%	i	0.64
14	COc1cc2c(c(OC)c1)C(c1ccncc1)CC(=O)N2 (stereo unspecified)	8.7%	i	-1.1
15	CC(c1nnc(SCn2nnc3ccccc3c2=O)n1-c1ccc(Cl)cc1)N(C)C (stereo unspecified)	-1.1%	i	1.5
16	Cc1sc(NC(=O)CSc2nnnn2C2CCCC2)c(C#N)c1C	-0.2%	i	0.93
17	O=C(Nc1ccon1)c1cccc(Cl)c1	-2.0%	i	1.6
18	O=C(NC1CCCCC1)NC1CC2CCC(C1)N2Cc1nnnn1Cc1ccc2c(c1)OCO2 (stereo unspecified)	-4.8%	i	nt
19	CC(C)c1nnc(NC(=O)CCC(=O)NCC2CCCO2)s1 (stereo unspecified)	-0.7%	i	-0.26
20	CCCn1c(SC(C)C(=O)O)nc2ccccc21 (stereo unspecified)	2.4%	i	nt
21	Cn1c(N)c(C(=O)CSc2nc3ccccc3n2-c2ccccc2)c(=O)n(C)c1=O	-1.9%	i	-0.26
22	CSC1=C(C#N)C(CC(C)C)C(C(C)=O)=C(C)N1 (stereo unspecified)	1.7%	i	0.16
23	Cc1c(NC(=O)Cn2nc(C(=O)O)c3ccccc3c2=O)c(=O)n(-c2ccccc2)n1C	-2.7%	i	0.48
24	O=C(Nc1ccc2c(c1)OCCO2)c1c(F)c(F)c(F)c(F)c1F	9.0%	i	0.14
25	O=C(NCC(F)(F)F)N1CCOCC1	4.3%	i	-0.39
26	CCOC(=O)c1cc(-c2ccc(OC)cc2)nc2c1c(C)nn2CCC#N	-1.7%	i	nt
27	COc1cccc(C(=O)OC(C)CN2CCCC2)c1 (stereo unspecified)	-6.6%	i	-0.97
28	COc1ccc(/C(O)=C2\C(=O)C(=O)N(c3cc(C)on3)C2c2ccccc2OC)cc1C (stereo unspecified)	1.0%	i	-0.25
29	Cc1cc(C)cc(N(C(C)C(=O)Nc2c(C)n(C)n(-c3ccccc3)c2=O)S(C)(=O)=O)c1 (stereo unspecified)	-2.7%	i	-0.3
30	Cc1cc2c(N)cccc2nn1	-0.7%	i	1
31	COc1ccc(C(=O)N2CCc3cc(OC)c(OC)cc3C2)cc1OC	-7.6%	i	-0.54
32	COc1ccc(CC(=O)Nc2ccc(S(=O)(=O)Nc3nccc(C)n3)cc2)cc1	1.9%	i	nt
33	Fc1ccccc1CSc1ncnc2c1oc1ccccc12	1.2%	i	0.32
34	CCCOc1ccc(-c2nnc(-c3cccs3)o2)cc1	1.3%	4.4µM*	nt
35	O=C(NCCCN1CCCC1=O)c1cc(=O)c2ccccc2o1	0.3%	i	-1.2
36	CCCS(=O)(=O)N1CCCC(C(=O)N2CCN(c3ccccn3)CC2)C1 (stereo unspecified)	-1.3%	i	-0.2

Looked up above.
entry 31 in Hsc70: -7.6%
entry 27 in WNV NS2B-NS3 inh: -0.97

Additional entries follow.
entry	mol	Hsc70	MT1-MMP reporter	WNV NS2B-NS3 inh
37	CCc1cc(-c2n[nH]c(C)c2Oc2ccc(C(C)C)cc2)c(O)cc1O	1.5%	i	nt
38	CC1(C)Cc2c(sc3ncn4nc(CCC(=O)O)c(=O)nc4c23)CO1	0.5%	i	-1.3
39	COC(=O)c1c(N)c(C#N)c2n1CCCCC2	-2.8%	i	0.13
40	C/C(=C\C(=O)c1ccc(C)cc1)Nc1cccc(O)c1	1.8%	i	-0.48
41	CCCCCc1nc2ccccc2c(=O)n1N	-6.3%	i	1.5
42	CC(C)CCNC(=O)C(c1ccco1)N(Cc1ccc(F)cc1)C(=O)c1snc(C(N)=O)c1N (stereo unspecified)	6.9%	i	0.23
43	CCOC(=O)C1=C(N)n2c(s/c(=C\c3cccnc3)c2=O)=C(C(=O)OCC)C1c1cccnc1 (stereo unspecified)	3.1%	i	0.33
44	CCCCN(Cc1ccccc1)C(=O)C1CCN(S(=O)(=O)c2c(C)noc2C)CC1	-1.3%	i	nt
45	CC1(C)CC(NC(=O)C2CCCCC2C(=O)O)CC(C)(C)N1 (stereo unspecified)	1.5%	i	0.2
46	CC(C)(C)NC(=O)COC(=O)c1nsc(Cl)c1Cl	-1.5%	i	nt
47	COc1ccc(CN(Cc2nc3ccccc3c(=O)[nH]2)C(=O)C(C)(C)C)cc1	-3.0%	i	-0.8
48	Cc1nc(NCCN)c(C#N)c2c1COC(C)(C)C2	-1.8%	i	0.09

Quoted at random: 4 records from the list
entry	mol	Hsc70	MT1-MMP reporter	WNV NS2B-NS3 inh
15	CC(c1nnc(SCn2nnc3ccccc3c2=O)n1-c1ccc(Cl)cc1)N(C)C (stereo unspecified)	-1.1%	i	1.5
7	COc1cc(C2NC(=O)NC(C)=C2C(=O)OCc2ccccc2)ccc1O (stereo unspecified)	-11%	i	0.13
41	CCCCCc1nc2ccccc2c(=O)n1N	-6.3%	i	1.5
29	Cc1cc(C)cc(N(C(C)C(=O)Nc2c(C)n(C)n(-c3ccccc3)c2=O)S(C)(=O)=O)c1 (stereo unspecified)	-2.7%	i	-0.3

Next structures
entry	mol	Hsc70	MT1-MMP reporter	WNV NS2B-NS3 inh
49	Cc1ccc(Nc2nc(N)nc(CN3CCCCCC3)n2)cc1	-1.1%	i	-1.1
50	O=C(Cc1ccccc1)Nc1cccc(-c2nnc(-c3ccco3)o2)c1	-4.7%	i	-0.64
51	O=C(Cn1cnc2c(cnn2-c2ccc(F)cc2)c1=O)NCC1CCCO1 (stereo unspecified)	0.5%	i	0.11
52	Cn1c(CNc2nc3ccccc3n2C)nc2ccccc21	-6.1%	i	1.1
53	CC(C)C(C(=O)Nc1ccccc1)N1C(=O)c2ccccc2C1=O (stereo unspecified)	2.6%	i	-0.26
54	COc1cccc(C(=O)CSc2nc3cccnc3n2C)c1	-3.3%	i	nt
55	CCOCCCNCc1cccc(OC)c1	-2.0%	i	1.4
56	Cc1ccccc1OCc1nc(-c2ccc(-n3cccc3)cc2)no1	0.9%	i	-0.23
57	CCC(Sc1nc(C)cc(C)n1)C(=O)Nc1ccc(Cl)cn1 (stereo unspecified)	4.2%	i	nt
58	CC(C)n1c(CCC(=O)O)ccc1-c1ccccc1	0.4%	i	-0.02
59	CCCCOc1cccc(-c2nnc(N)s2)c1	-2.1%	i	1.2
60	Cc1ccc(OCCCC(=O)Nc2nncs2)cc1	6.5%	i	-0.04
61	COc1ccc2[nH]cc(C(=O)CN3CCCCC3C)c2c1 (stereo unspecified)	13%	i	-0.57
62	CCOc1ccc(NC(=O)N2CCN(c3nc4ccccc4s3)CC2)cc1	-0.9%	i	0.83
63	O=C(CSc1nnc(-c2ccc(S(=O)(=O)N3CCCC3)cc2)o1)N1CCCC1	5.1%	i	nt
64	COc1ccc(-c2c(C)oc3cc(O)cc(O)c3c2=O)cc1OC	3.1%	i	-0.09
65	CCCN(CCC)C1Sc2ccc(C(=O)OC)cc2NC1=O (stereo unspecified)	-8.1%	i	nt
66	COc1ccc(CNC(=O)COC(=O)c2cc(-c3ccco3)nc3ccccc23)cc1	0.6%	i	nt
67	Oc1ccccc1-c1cc(-c2cccc(F)c2)n[nH]1	1.9%	i	-0.89
68	O=C(Nc1ccccc1C1CC1)c1cccs1	-6.3%	i	1.1
69	O=C(Nc1ccc2c(c1)OCO2)C1CCN(S(=O)(=O)Cc2ccccc2)CC1	-5.6%	i	-0.09
70	Cc1cc(C)nc(SCC2COc3ccccc3O2)n1 (stereo unspecified)	-2.3%	i	-0.56
71	CC(C)(CNCC(O)c1ccccc1)N1CCOCC1 (stereo unspecified)	5.3%	i	-0.17
72	Cc1cccc(N2CCN(C(=O)C34CC5CC(CC(C5)C3)C4)CC2)c1C	7.2%	i	0.73
73	COc1cc(C(c2sc3ncnn3c2O)N2CCN(c3ccccc3F)CC2)cc(OC)c1OC (stereo unspecified)	5.2%	i	-0.59
74	CCOC(=O)c1[nH]c2ccccc2c1NC(=O)c1cc(OC)c(OC)c(OC)c1	5.2%	i	0.43
75	CCOC(=O)c1cn(CC)c2cc(N3CCCCC3)c(F)cc2c1=O	-4.5%	i	0.005
76	Cc1nc(NCCN2CCOCC2)c2nnn(Cc3c(F)cccc3Cl)c2n1	4.4%	i	0.93
77	Cc1ccc(C(=O)N2CCCC(c3nc4c(nnn4Cc4ccccc4)c(=O)[nH]3)C2)cc1 (stereo unspecified)	1.9%	i	1.1
78	CCOc1ccc(-c2nc(CSCC(=O)NCCN3CCOCC3)c(C)o2)cc1	-0.2%	i	0.13
79	CSc1cccc(-n2cc(-c3ccc4c(c3)OCO4)[nH]c2=O)c1	-18%	i	-0.41
80	O/N=C1\CCc2cc(Cl)ccc21	-2.6%	i	0.11
81	C=CCN1C(=O)CS/C1=C(\C#N)S(=O)(=O)c1ccc(C)cc1	-5.8%	i	-0.08
82	CCCc1nnc(NC(=O)c2c(O)c3cccc4c3n(c2=O)CC4)s1	3.1%	i	0.23
83	O=C1CCCc2nn(-c3ccccc3)c(-c3ccncc3)c21	-5.9%	i	0.2
84	COc1ccc(C(=O)NCCCn2ccnc2)cc1	3.9%	i	-0.0068
85	Cc1ccccc1OCCCC(=O)Nc1ccc(N2CCOCC2)cc1	-4.2%	i	-0.42
86	O=C(CCN1C(=O)c2ccccc2C1=O)N1CCC(c2ccccc2)C1 (stereo unspecified)	-5.8%	i	-0.59
87	O=C(OCC(CO)OC(CO)n1ccc(=O)[nH]c1=O)c1ccccc1 (stereo unspecified)	-8.0%	i	0.09
88	O=C(CSc1nc2cc(Cl)ccc2o1)c1cccs1	4.4%	i	-0.44
89	Cc1cc(NC(=O)CSc2nc3c(c(=O)n2-c2ccc(Br)cc2)SCC3)no1	-3.0%	i	-1.5
90	CCCCC(CC)CNC(=O)C1CCCN(S(=O)(=O)c2cnc[nH]2)C1 (stereo unspecified)	2.6%	i	1.2
91	COc1ccc(NC(=O)CN(c2ccc(C(C)C)cc2)S(=O)(=O)c2c(C)noc2C)cc1OC	5.4%	i	-0.68
92	Cc1ccc(CNC(=O)CS(=O)Cc2nc(-c3cccs3)oc2C)cc1 (stereo unspecified)	-5.8%	i	2.1
93	O=C(Nc1ccc(Br)cc1F)C1CCCN(S(=O)(=O)c2cnc[nH]2)C1 (stereo unspecified)	0.1%	i	-0.35
94	O=C(C1CCCCC1)N1CCC(n2nnc3ccccc32)CC1	0.7%	i	-0.8
95	COc1ccccc1-c1nnc(SCC(=O)N2CCOCC2)o1	4.1%	i	0.34
96	CCCS(=O)(=O)N1CCN(Cc2ccncc2)CC1	-1.9%	i	0.91
97	Cc1cccc(N(Cc2cc3ccccc3[nH]c2=O)C(=O)c2ccco2)c1C	-16%	i	-0.46
98	Cc1c(NC(=O)OCCNC(=O)Nc2ccccc2)sc(=S)n1C	12%	i	-0.51
99	O=C(NCc1cccnc1)c1ccccc1Br	-0.7%	i	0.15
100	O=C(CSc1ncnc2c1oc1ccccc12)Nc1ccc2c(c1)OCCO2	-5.3%	i	0.11
101	O=C(COC(=O)c1ccccc1S(=O)(=O)N1CCCCC1)NCC(F)(F)F	-0.2%	i	0.47
102	Cc1ccc2c(c1)SC1=NC(c3ccccc3)(C(F)(F)F)NC(=O)N12 (stereo unspecified)	7.2%	i	nt
103	Cc1ccc(S(=O)(=O)NC(=O)NC(C)(C)C)cc1	-1.7%	i	0.54
104	COc1ccc(CNC(=O)c2ccccc2SC)cc1	-0.2%	i	-1.1
105	OC(CN1CCCCC1)CN1CCCCC1	-0.2%	i	nt
106	COC(=O)c1cc(CSc2nnc(-c3ccccc3)c(-c3ccccc3)n2)oc1C	-6.3%	i	-0.09

Screens deposited in PubChem BioAssay by several laboratories.
